VACV Venus inh – vaccinia inhibition (Venus reporter). Vaccinia virus Venus reporter expression, fluorescence. Potency, µM (series often up to 36.5 µM), for the others: at the top dose activity change, negative = inhibition, most hits filed as inhibitors. actives 0.46% (n = 330,000); active means well fitted inhibition curve with a large enough effect; inconclusive means small, poorly fitted or top-dose-only effect; inactive means no such curve, though single readings can be large or run the other way; tested in A549 cells; also: nearly all actives have a fitted effect of over 30% in size; inactives centre near -10
VACV mCherry inh – inhibitors of vaccinia virus infection (mCherry reporter signal); Vaccinia virus mCherry reporter infection, fluorescence; about a quarter of the inactives have no number; Potency, µM (top dose mostly 36.5 µM), for the others: at the top dose activity change, negative = inhibition, hits mostly inhibitors; actives 0.63% (n = 310,000); active = well fitted inhibition curve with a large enough effect; inconclusive = small, poorly fitted or top-dose-only effect; inactive = no such curve, though single readings can be large or run the other way; tested in A549 cells; also: nearly all actives have a fitted effect of over 35% in size; inactives centre near -10
* = called active by the depositor; i = inactive; ? = inconclusive; / = not tested or not shown; & = joins results of further samples; [ ] = dose if it differs, or a comment. % is scaled to controls: 0 for no effect and ±100 for the full control effect; potency is read from the fitted curve at half-maximal effect.

The line under a structure holds: VACV Venus inh	VACV mCherry inh
Cc1cccc(NC(=O)CCn2cnnn2)c1
→ -2%	5%
Cn1c(C(O)c2ccc(Br)cc2)nc(Cl)c1Cl (stereo not drawn)
→ -9%	-2%
O=C(CSc1nnc(NC(=O)c2ccccc2F)s1)NC1CC1
→ 4%	i
Cc1ccc2[nH]c(-c3ccccc3)c(CN(C)C)c(=O)c2c1
→ -8%	-19%
Cc1cccc2c(C(=O)O)c3cccc(C)c3nc12
→ -5%	i
Cc1ccc(S(=O)(=O)NCCC(=O)OCC(=O)Nc2ccccc2Cl)cc1
→ 4%	i
CCn1c(SCC(=O)Nc2cc(C)on2)nnc1-c1ccccc1
→ 10%	18%
COCC(=O)N1CCCC(C(=O)c2ccc(Oc3ccccc3)cc2)C1 (stereo not drawn)
→ -16%	-11%
O=C1c2ccccc2NC(c2cccs2)N1NS(=O)(=O)c1ccccc1 (stereo not drawn)
→ -2%	-1%
COc1ccccc1C(=O)OCc1cc(=O)n2nc(C3CCCCC3)sc2n1
→ -5%	-12%
CSCCC(C)N1CCC(Oc2ccc(C(=O)NCc3ccccn3)cc2)CC1 (stereo not drawn)
→ 10%	-7%
O=C(Nc1cccc(Cl)c1N1CCOCC1)c1cccnc1Cl
→ -10%	-19%
Cc1[nH]nc2c1C(c1cn[nH]c1-c1ccc(F)cc1)C(C#N)=C(N)O2 (stereo not drawn)
→ ?	/
COc1ccc(/C(=C/Nc2cccc(Br)c2)C(C)=O)cc1OC
→ -5%	-24%
Cc1ccc(Nc2cc(C(=O)NCCCN3CCOCC3)c3ccccc3n2)c(C)c1
→ -15%	i

Exported with bars between the fields: entries from further up.
SMILES | VACV Venus inh | VACV mCherry inh
COc1ccc(/C(=C/Nc2cccc(Br)c2)C(C)=O)cc1OC | -5% | -24%
CSCCC(C)N1CCC(Oc2ccc(C(=O)NCc3ccccn3)cc2)CC1 (stereo not drawn) | 10% | -7%
Cc1ccc2[nH]c(-c3ccccc3)c(CN(C)C)c(=O)c2c1 | -8% | -19%
Cc1cccc2c(C(=O)O)c3cccc(C)c3nc12 | -5% | i
O=C(Nc1cccc(Cl)c1N1CCOCC1)c1cccnc1Cl | -10% | -19%
Cc1ccc(Nc2cc(C(=O)NCCCN3CCOCC3)c3ccccc3n2)c(C)c1 | -15% | i

Continued.
The line under a structure holds: VACV Venus inh	VACV mCherry inh
CC(C)c1cc(C(=O)OCC(=O)NC2CC2)c(O)c(C(C)C)c1
→ -16%	i
COc1ccc(NC(=O)CSc2ccc3nc(-c4ccccc4)cn3n2)c(OC)c1
→ -17%	-26%
CCOc1ccc(N=Cc2c(O)n(-c3ccc(C)c(C)c3)c(=O)[nH]c2=O)cc1
→ -17%[7.34 µM]	?
COc1ccc(CNC(=O)C2CCN(S(=O)(=O)c3cccc4nonc34)CC2)cc1
→ -7%	i
Cc1cccc(C(=O)NNC(=O)c2ccc3ccccc3c2)c1
→ -9%	i
CN(C)CCNc1oc(COc2ccc(Cl)cc2)nc1C#N
→ 3%	-6%
C[n+]1ccc(/C=C/c2ccc([N+](C)(C)C)cc2)c2ccccc21
→ 458%[activator]	i
Cc1ccccc1C(=O)NCC(=O)NNC(=S)NC(=O)c1ccccc1
→ -5%	-14%
O=C1CC(c2cccc(Br)c2)C2=C(CCCC2=O)N1 (stereo not drawn)
→ -7%	-17%
CCCn1cc(SCC(=O)NCC2CCCO2)c2ccccc21 (stereo not drawn)
→ -8%	i
COC(=O)C(Cc1ccccc1)NC(=O)C(CC(C)C)NC(=O)OC(C)(C)C (stereo not drawn)
→ -15%	-16%
CC(CNC(=O)c1ccccc1Cl)NC(=O)c1ccccc1Cl (stereo not drawn)
→ -20%	-17%
COc1cc(OC)cc(-n2nc(C(=O)NCCCN3CCOCC3)c3ccccc3c2=O)c1
→ 4%	/
Cc1[nH]c2c(C)cccc2c1CCNC(=O)C1CCCCC1C(=O)OCC(F)(F)F (stereo not drawn)
→ -18%	-18%
COc1cc(C(=O)Nc2ccc3c(c2)N(C(=O)CN2CCN(C)CC2)c2ccccc2CC3)cc(OC)c1OC
→ -6%	-17%
O=P(c1ccccc1)(c1ccccc1)C(O)c1ccco1 (stereo not drawn)
→ -4%	3%
CCC1OC(C)Cc2[nH][nH]c(=O)c21 (stereo not drawn)
→ -10%	-8%
COc1cccc(C2c3[nH]c4ccccc4c3CCN2Cc2ncc[nH]2)c1 (stereo not drawn)
→ -7%	-9%
CC(C)Oc1ccc(CNC(=O)c2cc3cccc4c3n2CC(C)S4)cc1 (stereo not drawn)
→ -3%	-13%
COc1ccc(/C=N\NC(=O)C2C(=O)NCC2c2ccccc2)cc1O (stereo not drawn)
→ -8%	-24%
Cc1cc(C)n(-c2cccc(Cl)c2C#N)n1
→ -10%	i
O=C(Nc1ccccc1C(F)(F)F)N1CCN(c2ccccn2)CC1
→ -9%	-26%
O=C(NNC(=O)c1csc(N2CCOCC2)n1)c1cccnc1
→ -10%	-13%
CN(C)CCCN=C(NO)c1ccc(Cl)cc1Cl
→ -8%	-2%
Cc1ccc(C(=O)Nc2cccc(C(F)(F)F)c2)cc1Nc1cncnc1
→ -28%&-29%	-13%&-28%
CSc1ccccc1NC(=O)c1cc(C)on1
→ -2%	-5%
O=C(CCCN1C(=O)c2ccccc2C1=O)OC1CSCC1NC(=O)c1ccccc1 (stereo not drawn)
→ -3%	/
CCOc1cc(C2C(C(=O)c3ccco3)=C(O)C(=O)N2CC2CCCO2)ccc1O (stereo not drawn)
→ -6%	-9%
CCOC(=O)/C(=C\c1ccccc1)C(=O)CCN1CCOCC1
→ -7%	i
COCC(=O)N1CCC(c2nc3ccccc3[nH]2)CC1
→ -2%	-12%
CCN1C(=O)/C(=C/c2ccc(OCc3ccc(C(=O)O)cc3)c(Cl)c2)NC1=S
→ -2%	-8%
c1ccc(OCc2nnnn2-c2ccccc2)cc1
→ 6%	-2%
Cc1cccc(N2CCN(CC(=O)NCc3ccc(Cl)cc3)CC2)c1C
→ -7%	?
CCOC(=O)Cc1ccc(NC(=O)NC(C)c2c(-n3cccc3)sc(C)c2C)cc1 (stereo not drawn)
→ -10%	-10%
CN(C)S(=O)(=O)c1cccc(NC(=O)CN(CCO)CC(=O)Nc2cccc(S(=O)(=O)N(C)C)c2)c1
→ -4%	-8%
O=C(c1ccc(Br)cc1)N1CCN(S(=O)(=O)c2ccccc2)CC1
→ -13%	i
CNS(=O)(=O)c1cccc(C(=O)OCC(=O)N2CCN(C(=O)c3ccco3)CC2)c1
→ -22%	-16%
O=C(Cc1ccccc1[N+](=O)[O-])NCCSCc1c(F)cccc1Cl
→ -8%	-11%
NNC(=O)CCN1CCN(C(c2ccccc2)c2ccccc2)CC1
→ -17%	-26%
N#Cc1nc(-c2ccc(OCc3ccccc3)cc2)oc1N1CCC(C(N)=O)CC1
→ ?	-23%
C=CCN(C(=O)CCC(=O)Nc1cc(C)on1)C(C(=O)NC1CCCC1)c1ccc(CC)cc1 (stereo not drawn)
→ -20%	-22%
COc1ccccc1NC(C#N)c1ccccc1OCc1ccccc1 (stereo not drawn)
→ 1%	-11%
Cc1ccccc1OCc1nnc(SCC(=O)N2CCc3ccccc32)n1C
→ -5%	-5%
Cc1cccc(S(=O)(=O)N2CCn3cccc3C2C)c1 (stereo not drawn)
→ -3%	-20%
O=C(CCNS(=O)(=O)c1ccc(Br)cc1)Nc1cccc(F)c1
→ -2%	-13%

Quoted at random: three records from the list.
The line under a structure holds: VACV Venus inh	VACV mCherry inh
CNS(=O)(=O)c1cccc(C(=O)OCC(=O)N2CCN(C(=O)c3ccco3)CC2)c1
→ -22%	-16%
O=C(Cc1ccccc1[N+](=O)[O-])NCCSCc1c(F)cccc1Cl
→ -8%	-11%
NNC(=O)CCN1CCN(C(c2ccccc2)c2ccccc2)CC1
→ -17%	-26%

The results go on:
The line under a structure holds: VACV Venus inh	VACV mCherry inh
N/C(=N\OC(=O)c1ccc(F)cc1)c1nonc1N
→ -5%	-1%
C=C1C(=O)[C@]23C[C@H]1CCC2[C@@]1(C)C(C[C@@H]3O)[C@](C)(C(=O)OC)CC[C@@H]1OC(C)=O (stereo partly drawn)
→ 1.8µM*	3.2µM*
CCN(CC)CCN=c1c(C)nc(C#N)c(N)n1O
→ -6%	-12%
COc1ccc(S(=O)(=O)N2CCCC2C(=O)NCC(=O)Nc2cccc(Cl)c2C)cc1 (stereo not drawn)
→ -8%	-13%
COc1cccc(-c2nn(-c3ccccc3)cc2/C=C(\C#N)C(=O)NCCCn2ccnc2)c1
→ -23%	?
COc1ccc(-c2nnc(SCc3ccccc3F)o2)cc1
→ -17%	/
CC(C)C[C@@]12C(=O)N(c3cccc(Br)c3)C(=O)N1[C@H](c1ccc(Cl)cc1)[C@@H]1C(=O)N(C3CCCCC3)C(=O)[C@@H]12
→ -11%	-14%
O=C(Cc1ccccc1)Nc1ccc(NC(=O)C2CCCCC2)nc1
→ -5%	-6%
CC(=O)Nc1ccc(C(=O)OCC(=O)Nc2ccccc2F)cc1
→ -3%	19%
Cc1ccc(Cc2cc(C)n[nH]c2=O)cc1
→ -9%	-2%
CCc1c(C)c2ccc(OCC(=O)NCC3CCC(C(=O)O)CC3)cc2oc1=O (stereo not drawn)
→ -5%	-13%
C/C(=N/N=C1\SCC(=O)N1c1ccccc1)c1ccc(C)cc1
→ -12%	i
Cn1c(-c2ccccc2)c(Sc2ccccc2)c2cc(-c3ccc4[nH]ccc4c3)ccc21
→ -3%	-15%
CCC(=O)N(Cc1ccc(S(N)(=O)=O)cc1)C1CC(=O)N(c2ccc(OC)cc2)C1=O (stereo not drawn)
→ -20%	/
CC(C)[C@H](NC(=O)C1CC(=O)N(c2ccc3c(c2)OCCO3)C1)C(=O)NC1CCCC1 (stereo partly drawn)
→ 1%	-13%
CN(Cc1cccs1)C(=O)CCc1c[nH]c2ccccc12
→ -12%	?
CC(C)c1ccc(C2C3=C(CC(C)(C)CC3=O)NC3=C2C(=O)c2ccccc23)cc1 (stereo not drawn)
→ ?	?
C=CCC[C@@H](Cc1ccc(F)cc1)C(=O)OC[C@@H](NC(=O)[C@@H](CC=C)CC(=O)N[C@H](CO)Cc1ccccc1)C(C)(C)C
→ ?	-13%
O=C(NCc1ccccc1)c1cc(C2COCCN2C(=O)c2cccs2)on1 (stereo not drawn)
→ 2%	4%
O=C(Nc1ccccc1N1CCN(C(=O)c2ccc(Cl)cc2)CC1)c1cc2ccccc2o1
→ -10%	i
O=C(Nc1ncc2c(n1)CC(c1cccc(Cl)c1)CC2=O)c1ccco1 (stereo not drawn)
→ -29%	-24%
COCCNC(=O)c1onc(CSc2cc(C)cc(C)c2)c1C(=O)NCCOC
→ -7%	-9%
CCCCCn1c(=O)c(C(=O)NCc2ccccn2)c(O)c2ccccc21
→ 3%	/
O=C(O)C#Cc1cccc2ccccc12
→ -20%	i
COc1ccc(C(=O)NCCS(=O)(=O)NCc2cccs2)cc1
→ -12%	-15%
O=C(c1ccc(Br)o1)N1N=C(c2ccc(Cl)cc2)CC1c1ccco1 (stereo not drawn)
→ -30%	-12%
CCOc1ccc2[nH]c(=O)c(CN(Cc3ccco3)C(CC)c3nnnn3Cc3ccccc3)cc2c1 (stereo not drawn)
→ ?	?
Cc1ccc(/C=N/n2c(-c3ccncc3)n[nH]c2=S)s1
→ -4%	-6%
Cn1c(=O)n(C)c2cc([N+](=O)[O-])c(N3CCN(C(=O)c4ccccc4Cl)CC3)cc21
→ -16%	-15%
Cc1ccc(CCNC(=O)CN2C(=O)COc3ccc(S(=O)(=O)N4CCCCCC4)cc32)cc1
→ -10%	-13%
COc1ccc(CN2C(=O)CNC2=S)cc1
→ 24%	i
O=C(COC(=O)c1ccc(Cl)c(S(=O)(=O)N2CCc3ccccc3C2)c1)Nc1ncc(Cl)cc1Cl
→ -6%	i
CC(=O)Nc1ccc(NC(=O)C(C)n2c3ccccc3c3nc(=O)cc(C)n32)cc1 (stereo not drawn)
→ -6%	-8%
CCn1c(SCc2ccc(F)cc2Cl)nnc1-c1nonc1NC(C)=O
→ -17%	-22%
CC(C)(C)C(=O)COC(=O)c1ccccc1O
→ -3%	-17%
O=C(c1csc2ccccc12)N1CCN(c2ccccn2)CC1
→ -10%	/
COc1ccccc1/C=C1\C=Cc2ccccc21
→ -6%	19%
CCCCNC(=O)c1cc2nc3c(c(C(F)(F)F)n2n1)CCc1ccccc1-3
→ -19%	-7%
COc1ccc(COC(=O)Oc2ccc(CNC(C)=O)cc2OC)c([N+](=O)[O-])c1
→ -12%	-8%
COc1cc2nc(N(CCCN(C)C)C(=O)c3ccc(S(=O)(=O)N4CCc5ccccc5C4)cc3)sc2cc1OC
→ -26%	-13%
O=C(NCN1C(=O)C2C3C=CC(C3)C2C1=O)Nc1nccs1 (stereo not drawn)
→ -16%	/
COc1ccc(CCNC(=O)CN(c2cc([N+](=O)[O-])ccc2OC)S(C)(=O)=O)cc1
→ 6%	-2%
COc1cccc(-c2nc(N3CCCCC3C)c3ccccc3n2)c1O (stereo not drawn)
→ -23%	-19%
CC(C)(C)NC(=O)NCc1ccco1
→ -11%	i
COc1cc(/C=N/NC(=O)c2cc(-c3ccccc3)nc3ccccc23)ccc1O
→ -6%	-24%
Cc1c(Br)c([N+](=O)[O-])nn1CC(=O)N1CCN(Cc2ccccc2)CC1
→ -15%	-4%
O=C1CCC(C(=O)N2CCC(O)(c3ccccc3)CC2)CN1CCc1ccccc1 (stereo not drawn)
→ -5%	i
N#CC1=C(N)N(c2ccccc2)C(=O)C1
→ -12%	/
CCOc1ccc(NC(=O)c2ccc3[nH]c(C)c(C)c3c2)cc1
→ -8%	i

Bioassay records (PubChem BioAssay)
